Compound activity from PubChem.
TRPV1 PAM – enhances activation of the human vanilloid receptor TRPV1 | TRPV1-expressing cells, Fluo-8 calcium influx, capsaicin EC20 potentiation; host cell line not named in the record; control for the full effect not named in the record | potentiation, % at 8.33 µM | 0.02% of 320,000 active | Q8NER1; active means potentiation above 80%; inconclusive means 30% to 80%; inactive means below 30%; further: 0% is about no effect
Target sequence (Q8NER1 whole entry, looked up): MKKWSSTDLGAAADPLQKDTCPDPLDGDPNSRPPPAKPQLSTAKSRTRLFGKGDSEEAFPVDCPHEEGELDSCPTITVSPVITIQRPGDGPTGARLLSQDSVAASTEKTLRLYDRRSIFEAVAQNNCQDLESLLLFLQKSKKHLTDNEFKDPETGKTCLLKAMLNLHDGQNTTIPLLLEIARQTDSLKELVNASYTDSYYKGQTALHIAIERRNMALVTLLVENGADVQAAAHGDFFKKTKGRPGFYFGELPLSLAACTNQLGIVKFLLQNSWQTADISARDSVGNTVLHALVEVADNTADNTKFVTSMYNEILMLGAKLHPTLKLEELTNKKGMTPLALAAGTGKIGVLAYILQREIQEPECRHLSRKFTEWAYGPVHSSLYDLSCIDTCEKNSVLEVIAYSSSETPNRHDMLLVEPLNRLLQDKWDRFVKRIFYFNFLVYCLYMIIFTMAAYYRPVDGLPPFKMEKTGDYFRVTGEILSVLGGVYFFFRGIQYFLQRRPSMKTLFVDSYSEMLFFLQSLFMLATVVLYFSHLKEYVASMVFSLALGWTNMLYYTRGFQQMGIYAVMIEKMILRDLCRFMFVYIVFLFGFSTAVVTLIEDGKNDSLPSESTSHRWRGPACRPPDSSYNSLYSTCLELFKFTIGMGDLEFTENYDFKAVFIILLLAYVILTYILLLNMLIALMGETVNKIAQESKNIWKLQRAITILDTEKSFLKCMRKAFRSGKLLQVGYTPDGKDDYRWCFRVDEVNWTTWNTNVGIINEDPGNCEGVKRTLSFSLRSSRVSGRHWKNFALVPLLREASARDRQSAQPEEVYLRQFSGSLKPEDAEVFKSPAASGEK
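Cells expressing TRPV1 were dye-loaded with Fluo-8 and read kinetically: 10 s baseline, 3 min after compound (agonist portion), then 2 min after EC20 capsaicin (allosteric enhancer portion). Calcium-bound dye fluorescence at 480/520 nm.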
Six1-Eya2 inh – inhibitors of human Six1/Eya2 interaction; AlphaScreen GST-Six1/His-Eya2 binding, biochemical; stronger effect = lower value; control for the full effect not named in the record; AID 651725; 0.56% of 360,000 active; activity change, % (concentration not given with the values); in the data active = activity change below about -65%; inconclusive = about -30% to -65%; inactive = above about -30%; further: on the % scale 0 is the no-effect control and ±100 the full control effect
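Six1/Eya2 binding was read as AlphaScreen signal after compounds were pinned into GST-Six1 plus His-tagged Eya2 (5X stock 250/500 nM) in pH 8.0 Tris/NaCl/TCEP buffer, beads added, then incubated 1 h, 37 C, dark.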
D2 PAM – potentiates the human D2 dopamine receptor allosterically; DiscoveRx D2 beta-arrestin cells, luminescence, 90 min; 100% = 57 uM dopamine signal; P14416; 0.23% of 360,000 active; potentiation, % (test concentration not listed); active = potentiation of 50% or more; inconclusive = 30% to 50%; inactive = 30% or less;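 further: compound concentration not given in the record; tested on top of an EC20 dose of dopamine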
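PathHunter beta-arrestin assay in DiscoveRx D2 cells. Compounds were added with an EC20 of dopamine (50 nM final) for 90 min at 37 deg C. Luminescence was read 1 h after detection reagent, with 57 uM dopamine as the EC100 control.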
CtBP-E1A inh – CtBP/E1A binding inhibition | AID 651724 | 0.49% of 340,000 active | AlphaScreen GST-E1A/His-CtBP binding, 1536-well; stronger effect = lower value; control for the full effect not named in the record | activity change, % (test concentration not listed); in the data active means activity change below about -65%; inconclusive means about -30% to -65%; inactive means above about -30%; further: on the % scale 0 is the no-effect control and ±100 the full control effect; compound concentration not given in the record
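Protein mix (5X: 125 nM each GST-E1A, His-CtBP) was incubated with pinned compound 2 h at 37 deg C in dark, in 50 mM Tris pH 8.0 buffer with 300 mM NaCl. Glutathione donor and nickel acceptor beads followed; AlphaScreen signal read after 1 h.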
Sfp PPTase inh – inhibitors of Bacillus subtilis Sfp phosphopantetheinyl transferase; Q9F4F7; Biochemical Sfp PPTase activity, qHTS; Potency, µM, for inactives: max response, negative = inhibition, hits mostly inhibitors; 3.5% of 310,000 active; active means well fitted inhibition curve with a large enough effect; inconclusive means small, poorly fitted or top-dose-only effect, or another doubt; inactive means no such curve, though single readings can be large or run the other way;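 further: the enzyme is Sfp with the accession as filed and its product quenches rhodamine fluorescence; potency means the concentration at half of the fitted maximal effect; 0% = enzyme reaction without inhibitor and -100% = no enzyme wells; top concentration of the series not given in the record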
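Sfp 15 nM + cpd, 15 min RT; start w/ rhodamine-CoA 5 uM, BHQ-2-YbbR 12.5 uM (final); 50 mM Hepes pH 7.6, 10 mM MgCl2, 0.01% NP-40, 0.01% BSA; read 525/598 nm at 0 and 30 min.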
PINK1 expr mod – modulators of PINK1 expression. PINK1 immunofluorescence, high-content cytometry, 24 h. Potency, µM (titrated, usually from 76.6 µM), for the others: at the top dose activation (PINK1 increase), most hits filed as activators. 0.2% of 410,000 active. AID 624263; active = well fitted activation curve with a large enough effect; inconclusive = small, poorly fitted or top-dose-only effect; inactive = flat fitted curve, though single readings scatter; cell line not stated here;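 further: potency means the concentration at half of the fitted maximal effect; % of control where 0% means no effect; nearly all actives have a fitted effect of over 65% in size; a mitochondrial uncoupler was the plate control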
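PINK1 protein, normally rapidly degraded, was detected by immunofluorescence after 24 hour compound treatment of a stable cell line. Titration data (5 concentrations) came from laser-scanning cytometry, with CCCP-treated wells as controls.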
D2 agonist – agonists of human D2 dopamine receptor (beta-arrestin); 0.084% of 360,000 active; activation, % (no concentration beside the values); P14416; DiscoveRx PathHunter D2 beta-arrestin, luminescence, 90 min; 100% = 57 uM dopamine signal; in the data active = activation above about 40%; inconclusive = about 15% to 40%; inactive = below about 15%; further: compound concentration not given in the record; the text of the record calls up to 30% inactive
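Agonist mode: compounds alone added to overnight-plated D2 PathHunter cells for 90 min at 37 C, with 57 uM final dopamine (EC100) defining full response. Beta-arrestin recruitment detected by chemiluminescent reagent, read after 1 h at ambient temperature.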
* hit, by the source's call; ? = inconclusive; . = not tested or not shown; & = joins results of further samples; [ ] = remark or other dose.

SMILES	TRPV1 PAM	Six1-Eya2 inh	D2 PAM	CtBP-E1A inh	Sfp PPTase inh	PINK1 expr mod	D2 agonist
COc1ccccc1/C=C1\SC(=O)N(CCC(=O)N2CCCCC2CCO)C1=O (stereo not drawn)	27.3	-2.7	0.0	-6.5	-0.8%	-1.1%	2.3
Cn1c(SCC(=O)NC2CCCc3ccccc32)nnc1C1CC1 (stereo not drawn)	7.2	4.4	-11.0	-8.6	.	-3.7%	-0.3
COc1cc([N+](=O)[O-])ccc1NC(=O)CN1CCc2cc(OC)c(OC)cc2C1	15.5	-25.2	-0.8	-26.0	-1.4%	0.5%	-3.0
Cc1cccn2c(=O)c(/C=C(\C#N)C(N)=O)c(Oc3ccccc3)nc12	-6.4	-6.4	-14.0	.	-3.2%	2.0%	-4.9
O=C(Nc1ccc(Cl)c(Cl)c1)c1ccccc1NC(=O)C1CC=CCC1C(=O)O (stereo not drawn)	-3.4	6.3	5.8	5.0	1.8%	2.3%	-1.9
Cn1c(CN2CCC(C(N)=O)CC2)c(C#N)c2ccccc21	-12.4	5.9	-19.6	-5.5	-0.2%	-1.2%	0.4
C#CCN(C(=O)c1ccc(OC2CCN(C(=O)CCOC)CC2)cc1)C1CCCCC1	2.5	5.1	-3.7	3.6	21.8%	2.2%	-1.3
CC(=O)Nc1ccc(NC(=O)C2Cc3c(-c4ccco4)ccnc3O2)cc1 (stereo not drawn)	.	0.0	-4.1	0.0	.	3.5%	3.4
CN(C)c1ccc(C(=S)N2CCNCC2)cc1	13.5	-6.4	-30.2	-10.5	8.7%	0.1%	-4.4
COc1ccccc1CNC(=O)c1cc(-c2ccncc2)nc2c(Cl)cccc12	-8.3	-2.4	18.6	-1.0	4.1%	0.6%	-4.3
N=C(SC1CC(=O)N(c2ccc(F)cc2)C1=O)N1N=C(c2ccccc2)CC1c1ccccc1 (stereo not drawn)	10.8	3.5	1.3	0.4	16.4%	1.2%	-1.6
COc1ccc(NC(=O)NS(=O)(=O)c2ccc(C)cc2)c(OC)c1	5.4	-5.5	1.0	-6.3	5.5%	4.3%[38.3 µM]	0.8
COCCN1CCN(Cc2nc(C3(c4ccc(C)cc4)CCCC3)no2)CC1	3.3	3.7	-16.3	-5.2	9.4%	0.1%	-1.4
Oc1c(C=C2N=c3ccccc3=N2)sc(=S)n1C1CCCCC1	1.1&-1.9	2.7&7.9	3.7&-6.7	3.9&3.2	8.6%&8.9%	4.0%&2.6%	6.7&-1.4
Cc1ccc(N2CCN(S(=O)(=O)N3CCCCC3)CC2)cc1Cl	-19.6	6.9	1.5	12.1	26.1%	4.0%	-0.8
COc1ccc(CNCC(=O)Nc2sccc2C#N)cc1	17.2	19.3	-4.6	.	?	0.2%	-1.4
CC1CCC(=O)N(CCOc2ccccc2)CC1 (stereo not drawn)	-5.3	-5.4	-8.5	0.5	3.2%	0.5%	-1.5
CC(=O)Nc1ccc(S(=O)(=O)NCCNS(=O)(=O)c2ccc(NC(C)=O)cc2)cc1	?	10.5	-4.0	2.7	2.1%	2.4%	-3.7
Cc1nc(-c2ccc(NS(=O)(=O)c3ccccc3)cc2)cs1	-7.8	-4.3	-23.5	.	-19.5%	-1.1%	0.0
CS(=O)(=O)N1CCN(C(=O)C(Sc2ccccc2)c2ccccc2)CC1 (stereo not drawn)	-15.5	3.3	-2.9	6.4	12.7%	-1.9%[38.3 µM]	-1.5
N#Cc1cccc(N=c2ssnc2Cl)c1	12.6	7.7	-8.7	5.1	7.94µM*	1.5%	-4.2
CCN(Cc1ccccc1)CC(O)COC(c1ccc(OC)cc1)c1ccc(OC)cc1 (stereo not drawn)	-5.7	-6.6	-21.2	-3.3	-11.5%	2.2%	-2.9
COc1cccc(CNCCO)c1OCc1ccccc1Cl	-1.5	2.6	-1.5	10.1	-15.0%	-0.7%	-1.3
CC(c1ccco1)N(C(=O)COc1ccc(Cl)cc1Cl)c1ccccn1 (stereo not drawn)	12.1	-5.6	-14.6	7.4	-7.8%	2.6%[38.3 µM]	-0.1
Cc1cc2c3c(c1)C1(C(=O)N3C(C)(C)CC2C)C(C#N)=C(N)Oc2n[nH]c(C)c21 (stereo not drawn)	0.2	0.0	-1.2	3.8	8.9%	11.4%[38.3 µM]	-0.6

Reprinted from the part before: 6 compounds, then new ones.
SMILES	TRPV1 PAM	Six1-Eya2 inh	D2 PAM	CtBP-E1A inh	Sfp PPTase inh	PINK1 expr mod	D2 agonist
CS(=O)(=O)N1CCN(C(=O)C(Sc2ccccc2)c2ccccc2)CC1 (stereo not drawn)	-15.5	3.3	-2.9	6.4	12.7%	-1.9%[38.3 µM]	-1.5
N#Cc1cccc(N=c2ssnc2Cl)c1	12.6	7.7	-8.7	5.1	7.94µM*	1.5%	-4.2
CCN(Cc1ccccc1)CC(O)COC(c1ccc(OC)cc1)c1ccc(OC)cc1 (stereo not drawn)	-5.7	-6.6	-21.2	-3.3	-11.5%	2.2%	-2.9
COc1cccc(CNCCO)c1OCc1ccccc1Cl	-1.5	2.6	-1.5	10.1	-15.0%	-0.7%	-1.3
CC(c1ccco1)N(C(=O)COc1ccc(Cl)cc1Cl)c1ccccn1 (stereo not drawn)	12.1	-5.6	-14.6	7.4	-7.8%	2.6%[38.3 µM]	-0.1
Cc1cc2c3c(c1)C1(C(=O)N3C(C)(C)CC2C)C(C#N)=C(N)Oc2n[nH]c(C)c21 (stereo not drawn)	0.2	0.0	-1.2	3.8	8.9%	11.4%[38.3 µM]	-0.6
COc1ccc(OC(=O)c2c(C)nn(-c3ccccc3)c2C)cc1	-1.3	1.5	-4.8	-18.4	-5.9%	2.2%	-2.5
Nc1c(N(CCCO)C(=O)C2CCCC2)c(=O)[nH]c(=O)n1Cc1ccccc1	17.9	4.7	-1.5	12.0	.	2.0%	0.8
CC(C)OC(=O)C1OC1(C)c1ccccc1 (stereo not drawn)	.	-3.4	-35.0	-2.7	.	-0.9%	-3.0
O=S(=O)(Oc1ccccc1)c1ccc(Cl)c(Cl)c1	.	39.3	-4.2	56.0	.	13.4%	-2.2
CCNC(=S)N=Nc1c(O)n(Cc2ccc(Cl)cc2)c2ccccc12	18.9	?	-16.0	?	?	4.3%	-8.3
Cc1cc(C)n(C(=O)CNC(=O)/C=C/c2ccccc2)n1	16.9	7.4	-3.6	2.8	6.0%	1.3%	0.0
O=C(CC1CCCC1)NCCS(=O)(=O)N1CCN(c2ccccc2)CC1	.	6.9	-21.3	-6.9	.	0.1%	-1.2
O=C(NC12CC3CC(CC(C3)C1)C2)OCCNC1CCCCC1	.	3.9	-8.1	-2.8	-3.6%	1.3%	-8.4
COc1ccc(CNCCC(c2ccc(F)cc2)c2ccc(OC(C)C)cc2)cc1OC (stereo not drawn)	-17.7	3.1	-9.1	16.9	?	-1.3%	-4.0
CC(C)Cn1cnc2c1c(=O)n(CC(=O)Nc1ccc3c(c1)OCO3)c(=O)n2Cc1ccccc1	4.2	-5.3	0.5	-1.1	7.8%	-0.4%	-0.8
Cc1cccc(CCNS(=O)(=O)c2ccc(S(=O)(=O)N3CCC(C)CC3)cc2)c1	.	4.8	-3.8	-1.1	.	?	1.3
CCc1cc(C(=O)N2CCN(c3ccccc3OC)CC2)sc1C	0.8	3.4	-10.0	-0.8	4.2%	1.8%	-0.1
CCn1c(=O)cc(N2CCN(Cc3ccccc3)CC2)[nH]c1=O	14.9	-1.6	1.3	1.6	7.5%	0.2%	-2.3
CN(C)CCSc1nnc2[nH]c3ccccc3c2n1	-7.5	-16.7	-40.9	-20.8	-25.2%	1.0%	-2.1
Cc1nn2c(-c3ccccc3)c(-c3ccccc3)nc2[nH]c1=O	0.7	9.3	-3.3	-0.3	-4.5%	-2.8%	0.9
CC(=O)c1ccc(N2CCN(C(=O)C3CCN(S(=O)(=O)c4ccc(F)cc4)CC3)CC2)cc1	8.5	-8.2	-2.0	-9.2	.	-0.4%	5.4
Cc1ccccc1OCCC(=O)OCC(=O)NC1CCCC1	0.9	0.5	-13.0	4.5	.	-3.3%	-0.2
COC(=O)c1ccc(C(=O)N2CCCCCC2(C)C(=O)NC(C)C)cc1 (stereo not drawn)	.	5.2	0.0	6.6	.	0.3%	-3.0
COc1cccc(NC(=O)Cn2cc3c(n2)CCCCC3)c1	-17.0	1.4	0.9	7.3	-4.8%	0.2%	8.9
COC(=O)c1ccccc1NC(=O)c1nc(S(=O)(=O)Cc2ccccc2)ncc1Cl	-15.1	-25.4	-3.0	.	-10.5%	1.7%	-0.7
COc1ccccc1N1CCN(c2ncnc3sc(C(=O)NCC4CCCO4)c(C)c23)CC1 (stereo not drawn)	-4.8	-0.8	0.8	-6.7	13.4%	0.8%	-1.3
COCCCNC(=O)Cn1cnc2c(OCc3ccccc3)ncnc21	.	4.6	.	-5.9	.	-0.2%	-1.1
Cc1nn(C(C)C(=O)NC2CCCCC2)c(=O)c2nn(-c3ccccc3)c(C)c12 (stereo not drawn)	-0.3	2.2	-11.8	.	7.2%	0.1%	0.2
COCON1C(=O)CN(C(C)=O)C1c1ccc(Cl)cc1Cl (stereo not drawn)	-16.9	-1.1	-3.3	1.2	8.4%	1.9%	-2.0
CCc1nn2c(NCCCO)cc(C)nc2c1-c1ccc(F)cc1	-35.9	-0.1	27.1	.	-1.3%	0.1%	0.5
CN(N=O)c1ccc(CC2CCc3ccccc32)cc1 (stereo not drawn)	.	29.2	-5.7	-8.2	.	-3.2%	-0.3
CC(C)(C)c1cc(-c2n[nH]c(=S)n2-c2ccccc2F)n[nH]1	?	4.5	-11.8	8.8	12.5%	-0.3%	5.3

Shown with values under each structure: 2 of the compounds above
Each structure is followed by: TRPV1 PAM, Six1-Eya2 inh, D2 PAM, CtBP-E1A inh, Sfp PPTase inh, PINK1 expr mod, D2 agonist
CC(=O)Nc1ccc(S(=O)(=O)NCCNS(=O)(=O)c2ccc(NC(C)=O)cc2)cc1
→ ?, 10.5, -4.0, 2.7, 2.1%, 2.4%, -3.7
Cc1nc(-c2ccc(NS(=O)(=O)c3ccccc3)cc2)cs1
→ -7.8, -4.3, -23.5, ., -19.5%, -1.1%, 0.0
